Assay outcomes (PubChem)
MgrA-DNA mod – S. aureus MgrA activity modulators, primary screen, biochemical, S. aureus Newman, fluorescence polarization | AID 602314, 2012 | inhibition, %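 (about 10 µg/mL by stock and volumes)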 | actives 0.13% (n = 84,000) | MgrA-DNA binding;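 active = above 50% in either of two replicates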;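 also: 0% = protein plus DNA without compound and 100% = DNA alone without protein; higher means less MgrA bound to DNA so lower polarization; one replicate is shown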
S aureus helic – inhibitors of S. aureus replicative helicase, primary screen, biochemical, fluorescence unwinding readout. replicative DNA helicase (DnaC/DnaB), Staphylococcus aureus. purified S. aureus helicase, fluorescence unwinding assay; about half of the hits fall short of the stated cut. inhibition, %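 (tested at about 80 µM)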. actives 0.05% (n = 120,000);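 active = both duplicates at 50% or more, or one of them with a favoured structure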;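 also: 0% = mean of negative control wells and 100% = mean of positive control wells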
Active calls of the source: *; . = no result given.

SMILES	MgrA-DNA mod	S aureus helic
CN(C)n1cccc1/C=C(\C#N)S(=O)(=O)c1ccccn1	2.7	.
COc1ccc(Cn2c(CCC(=O)N3CCOCC3)nc3cccnc32)cc1	.	9
Nc1ccccc1C(=O)NC1CCCCC1	-3.2	.
O=C(Nc1cccc(Cl)c1)c1ccc(CS(=O)c2ccc(Cl)cc2)o1 (configuration not stated)	2.4	9
COc1ccc(Cl)cc1N/C=C(\C#N)c1nc(-c2ccccc2)cs1	.	-22
CC(C)(C)C(=O)CSc1nc2ccccc2c(=O)n1CC1CC1	-1.4	.
COc1cc(/C=N/NC(=O)c2sc(N)nc2C)ccc1O	.	31
CO/N=C1\CN(c2nc3c(cc2F)c(=O)c(C(=O)O)cn3C2CC2)CC1CN (configuration not stated)	0.9	.
Cn1cccc1CNCc1ccccn1	.	12
CC(C)Nc1nnc(SCC(=O)Nc2c(C#N)oc3ccccc23)s1	.	6
COc1ccc(Cl)cc1N1CC(c2nc3ccccc3[nH]2)CC1=O (configuration not stated)	.	-20
O=C1C=CC(=O)N1c1ccccc1N1CCCCCC1	1.4	.
Cc1ccc(C)n1CCN1CCN(C(=O)c2cccs2)CC1	-0.9	8
CC(C)(C)C(O)(CC#CCN1CCCC1)c1ccccc1 (configuration not stated)	-1.2	4
CCOC(=O)CSc1nc2ncccc2c(=O)n1Cc1ccccc1	.	-1
O=C(CCCSc1nc2sc3c(c2c(=O)[nH]1)CCCC3)NCCCO	-0.2	.
CC(C)C(NC(=O)Cc1cccc2ccccc12)C(=O)N1CCN(c2ncccn2)CC1 (configuration not stated)	.	-4
Fc1ccc(C=Nc2ccc3c(c2)OCO3)cc1	.	0
Fc1ccc(-c2cc(-c3nnco3)[nH]n2)cc1	-2.7	0
CS(=O)(=O)N1CCN(c2ccnc3cc(Cl)ccc23)CC1	-1.7	.
Cc1cc2ncc(C(N)=O)cn2n1	0.8	.
COC(=O)C1=CNC=C(C(=O)OC)C1c1ccc(Cl)cc1	-0.2	6
CC(C)COc1ccc2[nH]c3c(c2c1)CCC3	-0.5	-6
S=C1NCN(C2CCCC2)CN1	.	-14
CCc1nc(C)cc(CN(C)C)c1O	-0.3	.

Look-ups from the results shown:
S aureus helic with `CC(C)COc1ccc2[nH]c3c(c2c1)CCC3` stands at -6
MgrA-DNA mod with `CO/N=C1\CN(c2nc3c(cc2F)c(=O)c(C(=O)O)cn3C2CC2)CC1CN` (configuration not stated) stands at 0.9
S aureus helic with `COc1ccc(Cl)cc1N1CC(c2nc3ccccc3[nH]2)CC1=O` (configuration not stated) stands at -20

(more compounds)
SMILES	MgrA-DNA mod	S aureus helic
O=C(O)c1nn(CN2CCN(c3ccccc3F)CC2)c2ccccc12	.	-8
CCNC(=O)c1ccccc1Sc1ccccc1CO	3.9	.
O=S(=O)(NCCCN1CCOCC1)c1cc(Br)c(Br)s1	-0.7	-2
Cc1cc(C(=O)OC(C)C)ccc1-c1ccc(C=C(C#N)C#N)o1	0.0	8
CCOC(=O)C(C(=O)Nc1nc2ccccc2s1)C1CCCCC1 (configuration not stated)	.	17
CN(CC(=O)N1CCN(c2ccccc2)CC1)S(=O)(=O)c1ccccc1	3.7	15
CCN(CC)S(=O)(=O)c1ccc(N(C(=O)Cn2nnc3ccccc32)C(C(=O)NC2CCCC2)c2ccco2)cc1 (configuration not stated)	-0.2	6
Cn1nc(-c2ccc(Cl)cc2)c2cc(C(=O)Nc3ccc4c(c3)OCO4)sc21	.	19
CS(=O)(=O)/C(C#N)=C/c1c(-c2ccccc2)nc2n1CCS2	-1.0	.
COC(=O)c1cc(=O)n2c(c1C(=O)c1cccs1)SCC2	.	-1
CNc1ccc(Cl)cc1C(N)=O	-1.7	.
CC(C)(C)NC(=O)CSc1nnnn1C(C)(C)C	4.2	16
CCN(CC(=O)Nc1ccc2c(c1)OCCO2)C(=O)c1cc(Cl)ccc1O	.	-3
C=CCC1(/C=C/C)CCCCN1 (configuration not stated)	.	11
N#C/C(N)=C(/C#N)N=Cc1c(F)cccc1Cl	-1.2	.
CCCCCc1nn2cc(-c3cccc(OC)c3)nc2s1	.	31
Cc1ccc(-n2ncc3c(=O)n(-c4ccc(F)c(Cl)c4)c(-c4ccco4)nc32)cc1	-0.7	9
CCCNC(=O)c1cc2oc3ccccc3c2n1C	-0.7	9
Cc1cc2occ(CC(=O)OCc3nc4ccccc4c(=O)n3CC#N)c2cc1C	.	-1
O=C(c1ccccc1)c1ccccc1C(=O)c1ccccc1	-1.2	.
CCC(=O)Nc1nc(-c2ccc3c(c2)CCN3C(C)=O)cs1	25	-1
CCOc1ccc(C2C(C(=O)OC)=CN(CCOC)C=C2C(=O)OC)cc1	1.9	-16
O=C(CSc1cccc[n+]1[O-])NC1CCCc2ccccc21 (configuration not stated)	-0.2	5
O=C(CSc1ccccc1Cl)c1cccs1	-0.7	2
Cc1ccc(Nc2nc(C)cc(C)c2C(N)=O)cc1	1.4	11
SMILES	MgrA-DNA mod	S aureus helic
CCN1C(=O)/C(=C2\SC(=S)N(c3cccc(Cl)c3)C2=O)c2ccccc21	1.7	10
Cc1oc2cc(O)cc(O)c2c(=O)c1-c1ccc2c(c1)OCCCO2	.	-1
Cn1c(/C=C/C(=O)O)nc2ccccc21	0.2	-6
CC1CCN(C(=O)Cn2ncc3c4ccccc4n(Cc4ccccc4)c3c2=O)CC1	.	-14
CCN1CCCC1CNC(=O)c1cc2c(s1)CS(=O)(=O)C2 (configuration not stated)	.	6
O=C(c1ccccc1)c1cncc(Br)c1	3.5	-1
CC(=O)N(Nc1ccccc1)c1ccccc1	0.9	7
CCOC(=O)c1nn(-c2ccc(F)cc2)c(=O)cc1OCC(=O)NC1CCCC1	.	11
CCOC(=O)c1c(-c2ccccc2)oc2cc(Br)c(O)cc12	.	39
O=C(CSc1nc2ncccc2[nH]1)NC1CCCC1	-1.6	16
CCN(CC)c1ccc(-c2nocc2C#N)cc1	18	-55
CC(=O)NCc1ccc(C(=O)COC(=O)CCc2c[nH]c3ccccc23)o1	.	-11
O=C1CCCN1CCCn1cnc2c([nH]c3ccccc32)c1=O	.	12
CC(=O)Nc1ccc(NC(=O)c2c(F)c(F)c(F)c(F)c2F)cc1	.	-22
CCCC(C(=O)O)N1C(=O)/C(=C/c2ccc(C)cc2)SC1=S (configuration not stated)	.	-3
O=C(O)CC1(C(=O)O)CCCC1	-4.6	.
Cc1cccc(C)c1-n1c(C2CC3CCC2O3)n[nH]c1=S (configuration not stated)	-1.0	.
O=C1CS/C(=N/c2ccccn2)N1C1CCCCC1	0.5	5
Cc1cccc(Oc2coc3cc(OC(=O)c4ccc(F)cc4)ccc3c2=O)c1	1.8	4
O=S(=O)(NC(c1ccccc1)c1ccccc1)c1ccccc1	-1.8	1
O=C(COc1ncnc2ccccc12)Nc1ccc(Cl)cc1F	-3.0	0
COC(=O)CSc1nnc(CNC(=O)c2cccs2)n1C	.	-5
CCOc1cc(/C=C/C(=O)C2C(=O)C=C(C)OC2=O)cc(Br)c1O (configuration not stated)	.	-102
O=C(NC1CCCCC1)C(=S)NC1CCCC1	18	13
O=C(NCc1cccs1)C1CCC(CNS(=O)(=O)c2cccc3nsnc23)CC1 (configuration not stated)	.	8

One compound at a time, from the list above. Order of screens: MgrA-DNA mod, S aureus helic
Record of CCOc1cc(/C=C/C(=O)C2C(=O)C=C(C)OC2=O)cc(Br)c1O (configuration not stated) : ., -102
Record of O=C(CSc1nc2ncccc2[nH]1)NC1CCCC1 : -1.6, 16
Record of O=S(=O)(NC(c1ccccc1)c1ccccc1)c1ccccc1 : -1.8, 1

Filtered by structure, the compounds so far containing a COOH group
SMILES	MgrA-DNA mod	S aureus helic
CO/N=C1\CN(c2nc3c(cc2F)c(=O)c(C(=O)O)cn3C2CC2)CC1CN (configuration not stated)	0.9	.
O=C(O)c1nn(CN2CCN(c3ccccc3F)CC2)c2ccccc12	.	-8
Cn1c(/C=C/C(=O)O)nc2ccccc21	0.2	-6
CCCC(C(=O)O)N1C(=O)/C(=C/c2ccc(C)cc2)SC1=S (configuration not stated)	.	-3
O=C(O)CC1(C(=O)O)CCCC1	-4.6	.

(more compounds)
SMILES	MgrA-DNA mod	S aureus helic
CCc1nc2cc(N)ccc2n1C	0.0	9
CCN1CCCC1CN(Cc1cc2cc(OC)ccc2[nH]c1=O)C(=O)Nc1ccccc1 (configuration not stated)	-2.3	5
Nc1ccc2oc(-c3ccccc3)nc2c1	3.2	6
Cc1ccc2c(c1)OC(=O)CC2c1ccccc1 (configuration not stated)	-0.1	-11
COCn1c(-c2ccc(OC)cc2)nc2ccccc21	.	16
CCN(CC)C(=O)C1C(=O)N(C)C2(C)CC1c1ccccc1O2 (configuration not stated)	-2.8	2
Cn1cnnc1Sc1ccc(Cl)cc1NC(=O)c1cc2ccccc2o1	.	-9
CCN1CCN(CC(=O)NC23CC4CC(CC(C4)C2)C3)CC1	-6.1	15
O=C(O)CCC(=O)Nc1sccc1C(=O)Nc1ccccc1	6.5	2
CC(=O)N1CCc2c(sc3c2c(=O)n(Cc2ccccc2)c(=O)n3Cc2cccc(C)c2)C1	9.6	-4
COC(=O)C1=C(C)Nc2ccccc2S1	12	2
Nc1ncnc2c1c1nc3ccccc3nc1n2CCc1ccccc1	2.8	11
CCC(Sc1nc(=O)cc(N)n1CCc1ccccc1)C(=O)Nc1nc(-c2ccccc2)cs1 (configuration not stated)	1.4	12
Cc1ccccc1OCc1nnc(SCC(=O)N(C)C)n1-c1ccccc1	6.2	6
O=C(OCC(=O)c1cccs1)c1ccc(O)cc1	.	3
CSc1cccc(NC(=O)CCC(=O)O)c1	0.3	.
CSc1ncc(-c2nnc(SCc3ccccc3)n2C)n1C	0.0	.
CC1(C)C=C(O)C(C2(O)C(=O)c3ccccc3C2=O)C(=O)C1 (configuration not stated)	-2.8	-4
Cc1ccc2c3c(ccc2n1)NC1=C(C(=O)CCC1)C3c1ccccc1C (configuration not stated)	-1.1	6
O=C(CC1c2ccccc2CCN1S(=O)(=O)c1ccc(F)cc1)OCC(=O)N1CCCCC1 (configuration not stated)	.	3
CN1CCc2c(OCC(=O)N3CCCCCC3)cccc2C1=O	.	6
COc1cccc(C2C(C(=O)/C=C/c3ccco3)=C(O)C(=O)N2CCN2CCOCC2)c1 (configuration not stated)	.	6
CC(C)(C)OC(=O)C(C)(C)Sc1ccc(Cl)cc1	-0.1	.
CC1CC(C)CN(c2ccc3nncn3n2)C1 (configuration not stated)	.	11
Nc1ncnc2c1ncn2C1CCC(CO)C(O)C1 (configuration not stated)	.	-9

Random excerpt: 6 entries already listed
SMILES	MgrA-DNA mod	S aureus helic
CC(C)(C)OC(=O)C(C)(C)Sc1ccc(Cl)cc1	-0.1	.
CC1CC(C)CN(c2ccc3nncn3n2)C1 (configuration not stated)	.	11
CCN1CCN(CC(=O)NC23CC4CC(CC(C4)C2)C3)CC1	-6.1	15
CSc1cccc(NC(=O)CCC(=O)O)c1	0.3	.
CC1(C)C=C(O)C(C2(O)C(=O)c3ccccc3C2=O)C(=O)C1 (configuration not stated)	-2.8	-4
O=C(CC1c2ccccc2CCN1S(=O)(=O)c1ccc(F)cc1)OCC(=O)N1CCCCC1 (configuration not stated)	.	3

More records:
SMILES	MgrA-DNA mod	S aureus helic
CN(C(=O)NC(=O)Nc1ccc(Cl)cc1Cl)S(C)(=O)=O	.	4
O=c1oc2ccccc2c(O)c1Sc1ccc(Cl)cc1	2.8	19
O=C1CN(S(=O)(=O)c2ccc([N+](=O)[O-])cc2)CC(=O)N1	-0.9	.
CN(C)C(Cc1ccccc1)C(=O)C(C)(C)C (configuration not stated)	.	1
Oc1ccc(CNc2ccc(F)cc2)c2cccnc12	15	16
CCc1ccc(S(=O)(=O)NCc2cn3ccsc3n2)cc1	.	4
O=C(NN1C(=O)/C(=C\c2cccnc2)SC1=S)c1ccccc1	3.3	-4
O=C(/C=C/O)c1cccc(OCc2ccc(Cl)cc2Cl)c1	1.1	.
Cc1nc2ccccc2c(=O)[nH]1	3.2	-5
C#CCOc1ccc(OC)cc1/C=C(/C#N)c1ccc(C#N)cc1	0.7	-3
O=C(Nc1ccc(N2CCOCC2)cc1)C12CC3CC(CC(C3)C1)C2	0.0	17
CCOc1ccc(C2Nc3ccccc3NC3=C2C(=O)CC(c2ccc(OC)c(OC)c2)C3)cc1 (configuration not stated)	-0.2	.
Cn1c(=O)c2c(n3c(SCC(N)=O)nnc13)-c1ccccc1CC21CCCCC1	.	11
CCC(C)NC(=O)c1ccc(Cl)cc1 (configuration not stated)	-1.5	2
C(=NC1CCCCCCCCCCC1)c1ccco1	-1.9	.
CCN(CC)CCOC(=O)c1ccc(NC(=O)CCCN2C(=O)/C(=C/c3ccc(OC)cc3)SC2=S)cc1	-1.1	.
NC(=O)c1nsc(C(=O)N(CC(=O)NCc2ccc3c(c2)OCO3)C2CCCCC2)c1N	-0.1	-1
CCC1(C)OC(=O)N(C2CC(C)(C)NC(C)(C)C2)C1(C)O (configuration not stated)	.	13
CC(Oc1ccccc1)C(=O)OCc1nnc(-c2ccc(F)cc2)o1 (configuration not stated)	.	13
CC1=C(C(=O)Nc2ccc(C)cc2)C2(CCN(C(C)C)CC2)OC1=O	.	14
COc1ccc2oc(=O)cc(CN(Cc3cccs3)C(C)C)c2c1	4.4	9
S=C(NCCN1CCOCC1)NNc1ccc2ccccc2c1	.	-11
O=C(Nc1ccc(F)cc1)N1CCN2C(=O)c3ccccc3C12c1ccccc1 (configuration not stated)	.	-27
Cc1ccc(OC(=O)c2cccc(C(=O)Oc3ccc(C)cn3)n2)nc1	.	9
O=C1C2CC=CCC2C(=O)N1Cc1cc(=O)n2ccsc2n1 (configuration not stated)	.	-7
CC1(C)CC(=O)C2=C(C1)Nc1ccccc1N(C(=O)C1CC1)C2c1ccco1 (configuration not stated)	.	9
CC1=C(OC(=O)c2ccccc2)C(C)(C)C(c2ccccc2)OC1=O (configuration not stated)	-2.4	3

Not all compounds are listed; the hit share may differ from the screen's.
